Source: PubChem
2A Renilla: Primary qHTS Assay for Foot and Mouth Disease Virus Antivirals against NCGC Sytravon and CBC Compound Libraries: Renilla Luciferase Signal; HEK cells with a luciferase reporter of 2A StopGo recoding; 0.32% of 120,000 active; Potency, µM (titrated, usually from 57.5 µM), without a hit: at the top dose signal change, negative = less light; active means well fitted falling curve with a large enough effect; inconclusive means small, poorly fitted or top-dose-only effect; inactive means no such curve, though single readings can be large or run the other way; note: nearly all actives have a fitted effect of over 55% in size; overnight with compound
StopGo FLuc: Primary qHTS Assay for Foot and Mouth Disease Virus Antivirals against NCGC Sytravon and CBC Compound Libraries: Firefly Luciferase Signal; HEK cells with a luciferase reporter of 2A StopGo recoding; Potency, µM (highest dose often 57.5 µM), inactives show top-dose signal change, negative = less light; 0.23% of 120,000 active; AID 1745856, 2022; active = well fitted falling curve with a large enough effect; inconclusive = small, poorly fitted or top-dose-only effect; inactive = no such curve, though single readings can be large or run the other way; note: nearly all actives have a fitted effect of over 60% in size; overnight with compound
An asterisk follows results filed as active; ? = inconclusive; & = joins results of further samples; [ ] = remark or other dose. % is set by controls: 0 for no effect and ±100 for the full control effect; potency is the fitted concentration of half-maximal effect. Only part of the results is shown; count on the stated rates, not on these rows.

SMILES | 2A Renilla | StopGo FLuc
CC(C)(C)c1ccc(C(=O)CCCN2CCC(OC(c3ccccc3)c3ccccc3)CC2)cc1 | -3%&5% | 8%
COc1ccc(C(=O)NCC(c2ccc3c(c2)OCO3)N2CCN(C)CC2)cc1OC (configuration not stated) | 0% | 2%
Cc1nnc(SCC(=O)Nc2sc3c(c2C#N)CCC(C)C3)n1Cc1ccccc1 (configuration not stated) | 12% | -12%
COCCCNC(=O)c1c(NC(=O)Cc2coc3cc(C)ccc23)sc2c1CCCC2 | 143%[activator] | 62%[activator]
Cc1ccc(-c2noc(-c3ccc(N4CCCCC4)c([N+](=O)[O-])c3)n2)cc1 | 10% | -25%
Cc1cc(Br)ccc1NC(=O)C(NS(=O)(=O)c1cccs1)c1ccccc1 (configuration not stated) | 29% | -9%
Cc1cc(C)cc(NC(=O)c2cc(S(=O)(=O)N3CCc4ccccc43)cn2C)c1 | -4% | 4%
CCCC(C)N(C)Cc1nnc(-c2ccc(Br)s2)o1 (configuration not stated) | 5% | 24%
O=C(NCCCc1ccccc1)c1cc(-c2cccc3ccccc23)nc2ccccc12 | 0% | ?
CCc1cccc(NC(=O)c2ncoc2-c2cccc(Cl)c2)c1 | -4% | 13%
COc1ccc(C(=O)Nc2oc3ccc(Cl)cc3c(=O)c2-c2ccccc2)cc1OC | -18% | -7%
O=C1CSc2ccc(C(=O)OCc3cc(-c4ccc(Cl)cc4)no3)cc2N1 | 8% | 83%[activator]
CC(C)(C)C(=O)NCCCC(=O)O | -14% | -22%
O=C(NCc1cccn1Cc1ccc(F)cc1)NC12CC3CC(CC(C3)C1)C2 | -4% | -6%
O=C(c1cc2ccccc2oc1=O)N(Cc1ccccc1Cl)C1CCS(=O)(=O)C1 (configuration not stated) | 5% | 105%[activator]
CCC1CN(C(=O)Nc2ccc(Br)cc2F)c2ccccc2S1 (configuration not stated) | -13% | -10%
Cc1oc2cc(OCC(=O)O)ccc2c(=O)c1-c1ccc(Br)cc1 | -13% | -9%
COc1cc(OC)cc(C(=O)Nc2ccc(-c3nc4cc(C(C)C)ccc4o3)cc2)c1 | -19% | 168%[activator]
Cc1ccc2c(=O)cc(C(=O)Nc3ccc(S(=O)(=O)N4CCCCC4)cc3)oc2c1 | -12% | -10%
CC1=C(C(=O)Nc2ccc(C)cc2Cl)C2(CCCCCC2)OC1=O | 9% | 12%
Cc1occc1-c1nnc(SCC(=O)N(Cc2ccccc2)c2ccccc2)o1 | 24% | -11%
Cc1nn(CC(=O)Nc2ccc(OC(F)(F)F)cc2)c(=O)c2c(C)n(-c3ccc(Cl)cc3)nc12 | -12% | -11%
O=C(NCCc1nc2ccccc2[nH]1)c1ccc(N2CCCN(Cc3ccccc3)C2=O)cc1 | ? | ?
COc1ccc(Cc2nnc(C(=O)NCCN3CCN(c4cccc(Cl)c4)CC3)o2)cc1OC | -27% | -24%
Cc1ccc(-c2nc(CSc3nc4ncccc4[nH]3)c(C)o2)cc1 | -16% | -9%
CS(=O)(=O)c1ccc2nc(NC(=O)/C=C/c3cccs3)sc2c1 | 7% | 0%
COc1ccc(-c2cc3c(=O)n(CC(=O)Nc4ccc(Br)c(C)c4)ccn3n2)cc1OC | ? | 43%[activator]
CC(=O)Nc1ccc(NC(=O)c2oc3ccc4c(c3c2C)C(=O)CC(C)(C)O4)cc1 | 39%[activator] | 222%[activator]
Cc1ccc2c(CSc3nnnn3-c3ccc(Cl)cc3)cc(=O)oc2c1 | 36%[activator] | -2%
CCCCn1c(=O)[nH]c(=O)c2c1nc(CCC(=O)NCc1cccc(OC)c1)n2CC(C)C | -1% | -5%
CCCCCCn1c(CNC(=O)c2ccccc2)nc2ccccc21 | 74%[activator] | -7%
CCOc1ccccc1C(=O)N1CCc2cc(OC)c(OC)cc2C1COc1ccc(OC)cc1 (configuration not stated) | -27% | ?
CCOC(=O)c1c(NC(=O)c2cc(CC)on2)sc(C(C)=O)c1C | -7% | -18%
O=C(c1cc2cc(Br)ccc2oc1=O)N1CCN(S(=O)(=O)c2ccccc2)CC1 | 14% | 11%
COc1ccc(NC(=O)CN(C)S(=O)(=O)c2cnc[nH]2)cc1Cl | -11% | 6%
O=C1/C(=C/c2cccc(Cl)c2Cl)C(c2ccccc2)Oc2ccccc21 (configuration not stated) | -7%[1.06 µM] | -11%
N#Cc1ccc(NC(=O)Cn2c(=O)c3c(ncn3Cc3ccccc3)n(Cc3ccccc3)c2=O)cc1 | -2% | -1%
COCCN(CCOC)C(=O)/C=C/c1ccsc1 | 1% | 2%
CCSC1=C(C#N)C(c2ccc(Cl)cc2)C2=C(CCCC2=O)N1 (configuration not stated) | 40%[activator] | -9%
CCOCCCNc1nc2cc(OC)c(OC)cc2c2nc(-c3ccccc3)nn12 | -9% | -9%
Cc1ccc(C(=O)/C=C/c2cn(CC(O)CN3CCCCCC3)c3ccccc23)cc1 (configuration not stated) | -16% | 29%
Cc1ccc(NC(=O)CCc2c[nH]c3ccccc23)cc1C | -20% | 65%[activator]
COc1ccccc1CNC(=O)COC(=O)c1cccnc1Nc1cccc(C(F)(F)F)c1 | -15% | -2%
CCOc1ccc(-c2cc(C(=O)NCCc3ccccn3)[nH]n2)cc1 | 1% | 66%[activator]
COc1ccc(/C=C/C(=O)NCC(C)C)cc1 | -1% | 0%
Cc1ccc(-n2c(=O)c3cccnc3n2CC(=O)Nc2ccccc2C(F)(F)F)cc1C | 1% | -19%
COC(=O)c1sccc1NC(=O)CC(C)(C)CC(=O)O | 18% | 26%
N#Cc1ccccc1-c1ccc(COC(=O)C2CCCO2)cc1 (configuration not stated) | 7% | 0%
CCOC(=O)Cn1nc(C)c(NC(=O)COc2ccc(C)c(C)c2)c1C | -11% | -10%
Cc1c(Cl)cccc1NC(=O)NCc1c(-n2cccc2)sc2c1CCCC2 | -8% | -4%
COc1cccc(CNC(=O)CCS(=O)(=O)c2cc3c4c(c2)CCN4C(=O)CC3)c1 | 7% | 19%
COc1ccccc1NC(=O)CC1Nc2ccccc2NC1=O (configuration not stated) | 44%[activator] | 20%
O=Cc1c(-c2ccc(Cl)cc2)[nH]c2ccccc12 | 32%[activator] | 60%[activator]
O=C(Cn1c(SCCOc2ccc(Cl)cc2)nc2ccccc21)N1CCCCC1 | 1% | -9%
Cc1cc(C)c2nc(SCC(=O)NC(=O)NC(C)(C)C)cc(C)c2c1 | -10% | -13%
CC(c1nc2ccccc2s1)N(C)C(=O)c1ccc(S(=O)(=O)Nc2ccccc2)cc1 (configuration not stated) | 52%[activator] | ?
Cc1ccccc1Nc1c(-c2ccc(Cl)s2)nc2cccc(C)n12 | -10% | -9%
CCOC(=O)c1cc2cc(C(=O)NC(C)CC)ccc2[nH]1 (configuration not stated) | 7% | 83%[activator]
CC1CC(=O)Nc2ccccc2N1C(=O)Cn1cnc2c(Cl)cc(Cl)cc2c1=O (configuration not stated) | 0% | 8%
Cc1cc(=O)n(CC(=O)N2CCCC2)c(-c2ccccc2)n1 | 1% | 10%

Carrying on.
SMILES | 2A Renilla | StopGo FLuc
CCOC(=O)C(C)Oc1ccc2c(=O)c(Oc3ccc(C(=O)OC)cc3)c(C)oc2c1 (configuration not stated) | 9% | 8%
CCN(CC)S(=O)(=O)c1ccc2c(c1)N(CC(=O)Nc1ccccc1F)C(=O)C1CCCN21 (configuration not stated) | 2% | 0%
COc1cc(C(=O)Nc2ccc3sc(NC(C)=O)nc3c2)cc(OC)c1OC | 13% | 0%
O=c1c(-c2cc(-c3ccccc3)nc3c2COc2ccc(Cl)cc2-3)coc2ccc(F)cc12 | -6% | -8%
O=C1CN(C(=O)COC(=O)CC23CC4CC(CC(C4)C2)C3)c2ccccc2N1 | 5% | -11%
Cc1cccc(C)c1-n1ncc(C(=O)NCCCN2CCCCC2)c1C1CCN(C(=O)OC(C)(C)C)CC1 | 28% | 12%
CSc1ncc(C(=O)NCc2cccc(F)c2)c(-c2ccccc2)n1 | -3% | -13%
Cc1cccc(-n2ccnc2SCC(=O)Nc2ccccc2C(F)(F)F)c1 | -3% | -4%
O=c1oc2ccc(Cl)cc2cc1-c1csc(Nc2ccc(F)cc2F)n1 | -3% | -3%
CCOC(=O)NC(C)c1ccncc1 (configuration not stated) | 16% | 10%
Cc1cc(C)cc(Oc2nc3c(c(=O)n(C)c(=O)n3C)n2Cc2ccc(F)cc2)c1 | -11% | -8%
CCOc1ccccc1CNS(=O)(=O)c1csc(C(N)=O)c1 | 108%[activator] | 8%
CCN(CC)c1ncnc2c1sc1nc(-c3ccco3)c3c(c12)CC(C)(C)OC3 | -7% | -8%
Cc1oc(-c2cccc(Cl)c2)nc1CN1CCC(C(=O)NCCCN2CCN(c3ccccc3F)CC2)CC1 | -5% | -11%
COc1ccc(C(=O)Nc2nc3ccc(S(=O)(=O)N4CCCC4)cc3s2)cc1 | 21% | -8%
CCCCOc1ccc(S(=O)(=O)Nc2cccc(-c3ccc(N4CCOCC4)nn3)c2)cc1 | 121%[activator] | 30%[activator]
COc1ccc2c(ccn2CCC(=O)NCc2ccccc2OC)c1 | 26% | 13%
CCn1c(SC(C)c2nnc(-c3ccccc3)o2)nc2ccccc2c1=O (configuration not stated) | 5% | 13%
COCCN1C(=O)C(=O)/C(=C(/O)c2ccc(OC)c(C)c2)C1c1ccc(Cl)c(Cl)c1 (configuration not stated) | 4% | 8%
CCNC(=S)N/N=C(/C)c1cc(Cl)ccc1Cl | 7% | 7%

Some of the entries so far, with values under each structure:
Screens in order: 2A Renilla, StopGo FLuc
Cc1cccc(C)c1-n1ncc(C(=O)NCCCN2CCCCC2)c1C1CCN(C(=O)OC(C)(C)C)CC1
→ 28%, 12%
CSc1ncc(C(=O)NCc2cccc(F)c2)c(-c2ccccc2)n1
→ -3%, -13%
Cc1cccc(-n2ccnc2SCC(=O)Nc2ccccc2C(F)(F)F)c1
→ -3%, -4%
O=c1oc2ccc(Cl)cc2cc1-c1csc(Nc2ccc(F)cc2F)n1
→ -3%, -3%
CCOC(=O)NC(C)c1ccncc1 (configuration not stated)
→ 16%, 10%
Cc1cc(C)cc(Oc2nc3c(c(=O)n(C)c(=O)n3C)n2Cc2ccc(F)cc2)c1
→ -11%, -8%
CCOc1ccccc1CNS(=O)(=O)c1csc(C(N)=O)c1
→ 108%[activator], 8%
CCN(CC)c1ncnc2c1sc1nc(-c3ccco3)c3c(c12)CC(C)(C)OC3
→ -7%, -8%
Cc1oc(-c2cccc(Cl)c2)nc1CN1CCC(C(=O)NCCCN2CCN(c3ccccc3F)CC2)CC1
→ -5%, -11%
COc1ccc(C(=O)Nc2nc3ccc(S(=O)(=O)N4CCCC4)cc3s2)cc1
→ 21%, -8%
CCCCOc1ccc(S(=O)(=O)Nc2cccc(-c3ccc(N4CCOCC4)nn3)c2)cc1
→ 121%[activator], 30%[activator]
COc1ccc2c(ccn2CCC(=O)NCc2ccccc2OC)c1
→ 26%, 13%
CCn1c(SC(C)c2nnc(-c3ccccc3)o2)nc2ccccc2c1=O (configuration not stated)
→ 5%, 13%
COCCN1C(=O)C(=O)/C(=C(/O)c2ccc(OC)c(C)c2)C1c1ccc(Cl)c(Cl)c1 (configuration not stated)
→ 4%, 8%
CCNC(=S)N/N=C(/C)c1cc(Cl)ccc1Cl
→ 7%, 7%

Next part.
SMILES | 2A Renilla | StopGo FLuc
O=C(CCCN1C(=O)C(c2ccccc2)Oc2cccnc21)Nc1ccc(Br)cc1F (configuration not stated) | 17% | 8%
COc1ccc(N2CCN(C(=O)c3ccc4c(c3)N(Cc3ccc(F)cc3)C(=O)c3ccccc3S4=O)CC2)cc1 (configuration not stated) | 3% | -11%
CC(=O)N1CCC(NC(=O)Cn2c(C)cc3ccccc32)CC1 | -10% | 6%
Cn1c(=O)[nH]c(=O)c2c1nc(Sc1ncccn1)n2CCCc1ccccc1 | -6% | 3%
Cc1cnc(NC(=O)c2csc(NC3CCCC3)n2)s1 | ? | 18%
CC1=CC(C)(C)NC(=S)N1c1cc(C)ccc1C | 13% | 20%
Cc1nc2ccc(NC(=O)CC3C=CCC3)cc2s1 (configuration not stated) | 0% | 156%[activator]
O=C(CSc1ncnc2ccccc12)Nc1ccccc1OC(F)F | -18% | 1%
COc1ccccc1Cc1nc2ccccc2nc1SCC(=O)N1CCCc2ccccc21 | ? | -25%
CCOC(=O)c1ccc(N2C(=O)c3n[nH]c(-c4cccs4)c3C2c2cccc(F)c2)cc1 (configuration not stated) | -3% | ?
CC(C)C(=O)NC(=S)Nc1ccc(Cl)cc1 | 13% | 81%[activator]
CCOc1ccc(-c2nonc2NC(=O)COc2c(C)cc(C)cc2C)cc1OCC | -9%&-18% | -2%&0%
NC(=O)CN1CCN(S(=O)(=O)c2ccc(Cl)cc2F)CC1 | 10% | -6%
CC(=O)NC(Cc1c[nH]c2ccccc12)C(=O)N1CCN(S(=O)(=O)c2ccc(F)cc2)CC1 (configuration not stated) | -11% | -8%
Cc1cc(NS(=O)(=O)c2ccc(NC(=O)COc3ccc(Cl)cc3)cc2)nc(C)n1 | -14% | -15%
CC(C)C(=O)Nc1c(-c2cccc3ccccc23)c(=O)c2ccccc2n1C | -11% | -13%
CN(C(=O)CSc1nnnn1-c1ccccc1)c1ccccc1C(=O)NCc1ccco1 | 17% | 0%
O=C1CC(c2ccccc2)CC(O)=C1C=NCCO (configuration not stated) | 5% | -2%
CCCSc1ncc(Cl)c(C(=O)Nc2ccc(S(=O)(=O)N3CCC(C)CC3)cc2)n1 | 51%[activator] | 136%[activator]
CCCNC(=O)NC(=O)COC(=O)c1ccc2ccccc2n1 | -16% | -13%
Cc1ccc2nc(-c3c[nH]c4ccccc34)c(Nc3ccccc3)n2c1 | 11% | 139%[activator]
COc1ccc(CC(=O)Nc2ccc(-c3nc4ccccc4s3)cc2Cl)cc1 | 31%[activator] | 29%
